SARS PLpro yeast = SARS-CoV PLP inhibition in yeast. 0.19% of 330,000 active. Potency, µM (doses to about 32.9 µM), for inactives: top-dose activity, positive = growth rescue. S. cerevisiae expressing SARS-CoV PLpro, growth rescue; control for the full effect not named in the record. AID 485353; active means well fitted rising curve with a large enough effect; inconclusive means small, poorly fitted or top-dose-only effect; inactive means no such curve, though single readings can be large or run the other way; also: 0% is about no effect; nearly all actives have a fitted effect of over 55% in size; growth read by luminescence after 48 h
Cruzain Triton = cruzain (T. cruzi) inhibition with detergent; purified cruzain, Z-FR-AMC fluorescence, 0.01% Triton; Potency, µM, inactives show max response, negative = inhibition, usual class: inhibitors; 0.43% of 200,000 active; AID 1478;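 also: plate controls were neutral wells for no effect and buffer without enzyme for full effect; nearly all actives have a fitted effect of over 40% in size; top concentration of the series not given in the record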
Target sequence (P25779 123-467 limits assumed): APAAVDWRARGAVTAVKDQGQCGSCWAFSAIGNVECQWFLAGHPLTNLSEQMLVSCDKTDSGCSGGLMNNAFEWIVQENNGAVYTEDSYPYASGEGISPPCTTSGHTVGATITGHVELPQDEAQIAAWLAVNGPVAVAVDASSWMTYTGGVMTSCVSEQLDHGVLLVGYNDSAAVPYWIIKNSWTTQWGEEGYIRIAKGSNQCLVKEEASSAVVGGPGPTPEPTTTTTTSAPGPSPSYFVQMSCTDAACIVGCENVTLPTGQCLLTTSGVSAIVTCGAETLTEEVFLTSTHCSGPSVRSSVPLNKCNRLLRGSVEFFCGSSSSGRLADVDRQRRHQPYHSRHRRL
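Compounds were screened in titration against cruzain (1.5 nM) with 0.01% Triton X-100 to counter colloidal aggregation. Activity was the AMC fluorescence increase over 60 s after adding 2 uM Z-FR-AMC at pH 5.5.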
2A StopGo = FMDV 2A StopGo reporter, luciferase signal. human cells with a luciferase reporter of 2A StopGo recoding; control for the full effect not named in the record. Potency, µM (series often up to 57.9 µM), for the others: at the top dose signal change, negative = less light. 1.2% of 410,000 active; active = well fitted falling curve with a large enough effect; inconclusive = small, poorly fitted or top-dose-only effect; inactive = no such curve, though single readings can be large or run the other way; tested in HEK293T cells; also: % is scaled to controls: 0 for no effect and ±100 for the full control effect; nearly all actives have a fitted effect of over 45% in size; luciferase light after 4 h
MARV entry inh = Marburg virus entry inhibition | Marburg virus pseudotyped entry inhibition, cell reporter; control for the full effect not named in the record; about a third of the inactives were read at about 46 µM | Potency, µM (series often up to 37.8 µM), without a hit: at the highest dose activity change, negative = inhibition, hits mostly inhibitors | 1.8% of 300,000 active; active = well fitted inhibition curve with a large enough effect; inconclusive = small, poorly fitted or top-dose-only effect, or effect the other way; inactive = flat fitted curve, though single readings scatter; tested in HEK293 cells; about a fifth of its hits are not listed in these tables; also: % is scaled to controls: 0 for no effect and ±100 for the full control effect; luciferase read-out
LASV entry inh = blocks Lassa virus binding to or entry into cells; Lassa virus pseudotype entry inhibition, cell reporter; control for the full effect not named in the record; Potency, µM (titrated, usually from 37.9 µM), without a hit: at the top dose activity change, negative = inhibition, actives largely listed as inhibitors; 1.2% of 300,000 active; AID 540256; active means well fitted inhibition curve with a large enough effect; inconclusive means small, poorly fitted or top-dose-only effect, or effect the other way; inactive means flat fitted curve, though single readings scatter; tested in HEK293 cells; also: % is scaled to controls: 0 for no effect and ±100 for the full control effect; nearly all actives have a fitted effect of over 50% in size; luciferase read-out
NS1 function inh = inhibitors of influenza NS1 protein function. Potency, µM (series often up to 46.1 µM), for inactives: top-dose activity, positive = more growth. S. cerevisiae slowed by influenza A NS1, growth recovery by OD600. 0.4% of 270,000 active; active means well fitted rising curve with a large enough effect; inconclusive means small, poorly fitted or top-dose-only effect; inactive means no such curve, though single readings can be large or run the other way; also: nearly all actives have a fitted effect of over 50% in size
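Growth recovery, yeast-based: influenza A NS1 expressed in S. cerevisiae causes slow growth, and suppressors are detected by OD600. The parent strain without NS1 is used as positive control.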
RE007 growth inh = less growth of the S. pombe RE007 Vpr strain; Potency, µM (series often up to 92.2 µM), for the others: at the highest dose activity change, negative = less growth; S. pombe RE007 Vpr strain, BacTiter-Glo ATP luminescence, 24 h; control for the full effect not named in the record; 0.21% of 360,000 active; AID 651644; active = well fitted falling curve with a large enough effect; inconclusive = small, poorly fitted or top-dose-only effect; inactive = no such curve, though single readings can be large or run the other way;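 also: % is scaled to controls: 0 for no effect and ±100 for the full control effect; nearly all actives have a fitted effect of over 50% in size; the assay follows cell death caused by Vpr and the record does not say whether a fall means rescue or toxicity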
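Fission yeast strain RE007, carrying one chromosomally integrated HIV-1 vpr copy, was seeded at OD 0.01 in PMG+AL medium with 23 nL pinned compound. After 24 h at 30 °C and 99% humidity, viability was read by BacTiter-Glo luminescence.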
Cruzain inh noDet = blocks cruzain activity in detergent-free assay | Potency, µM, without a hit: max response, negative = inhibition, usual class: inhibitors | 2.3% of 200,000 active | P25779 | AID 1476 | purified cruzain, Z-FR-AMC fluorescence, no detergent;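 also: plate controls were enzyme without inhibitor for no effect and buffer without enzyme for full effect; nearly all actives have a fitted effect of over 40% in size; top concentration of the series not given in the record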
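Detergent-free condition (0.00005% Triton X-100) in acetate buffer pH 5.5 with DTT. 1.5 nM enzyme and compound were pre-mixed 15 min, then 2 uM Z-FR-AMC substrate added; reaction progress from fluorescence change between first and third reads (60 s).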
The depositor's hits bear a star; ? = inconclusive; · = not tested or not shown; & = joins results of further samples; [ ] = dose if it differs, or a comment. Unless noted, calls follow the shape of the dose curve; as a rule, active = well fitted curve in the direction sought with a large enough effect; inconclusive = small, poorly fitted or top-dose-only effect, or another doubt; inactive = no such curve, though single readings can be large; an effect the other way counts as inactive or inconclusive. Potency is read from the fitted curve at half-maximal effect.

SMILES | SARS PLpro yeast | Cruzain Triton | 2A StopGo | MARV entry inh | LASV entry inh | NS1 function inh | RE007 growth inh | Cruzain inh noDet
COc1ccccc1N(CC(=O)Nc1cc(C)cc(C)c1)S(C)(=O)=O | · | -3.6% | -8% | 7%[46.1 µM] | 8%[46.1 µM] | · | · | -7%
COc1cccc(C(=O)NC(=S)NCc2ccco2)c1 | ? | -2.1% | 31%[activator] | ? | ? | 1% | -19% | 5%
O=c1c2ccccc2c(-c2ccccc2)nn1-c1ccc(Cl)c(Cl)c1 | ? | -8.7% | ? | 0% | -20% | 13% | -1% | ?
O=C(O)COc1ccc(/C=N/NC(=O)c2ccccc2Br)cc1 | 0% | · | -12% | 9%[46.1 µM] | -4% | 1% | 3% | ·
CCc1nc(C)cn1S(=O)(=O)c1cc(C)c(OC)c(C)c1C | 1% | 1.8% | -28% | ? | ? | -10% | -1% | 3%
COc1ccc(OC)c(/C=N/NC(=O)CCc2n[nH]c(=O)[nH]c2=O)c1 | 2% | · | -27% | 5% | 0% | · | 9% | ·
Cc1ccc(-c2nnc(-c3ccc(NC(=O)c4cccs4)cc3)o2)cc1 | -5% | ? | · | 12µM* | 7.3µM* | -1% | -4% | 0%
Cc1ccc(Cl)cc1NC(=O)Cn1cc2c(n1)CCCCC2 | · | -2.2% | 0% | -22%[46.1 µM] | -2%[46.1 µM] | · | · | -4%
COc1ccc(C(=O)COC(=O)CN2C(=O)C3C4C=CC(C4)C3C2=O)cc1 (stereo not given) | 1% | -4.2% | -9% | -3%[46.1 µM] | 7% | -1% | 0% | 6%
CC(C)[C@H](NC(=O)N1CCn2c1nc1ccccc12)C(=O)N[C@@H](Cc1ccccc1)C(=O)O | ? | · | -3% | · | · | -6% | 7% | ·
O=C(O)c1cccc(CN2C(=O)SC(Nc3cccc4ccccc34)C2=O)c1 (stereo not given) | 0% | · | -5% | -8% | -1% | 7% | 1% | ·
CCc1ccccc1N(C)S(=O)(=O)c1cc(-c2cc(C)no2)ccc1OC | -1% | · | -17% | · | · | 8% | -8% | ·
Cc1ccc(-c2ccc(=O)n(CCC(=O)N3CCN(c4ccccc4)CC3)n2)cc1 | 1% | · | -18% | -28%[46.1 µM] | -29%[46.1 µM] | 4% | 4% | ·
O=C(Nc1cccc(NC(=O)c2cccs2)c1)c1ccc([N+](=O)[O-])o1 | 0% | · | -22% | ? | ? | 4% | -13% | ·
NC(=O)Cn1cc(C=C2C(=O)NC(=O)NC2=O)c2ccccc21 | -2% | · | 2% | 1%[46.1 µM] | 0% | 1% | 6% | ·
CCc1ccc(Cn2nnc(C(=O)Nc3cccc(C)c3)c2N)cc1 | -7% | 2.2% | ? | · | · | 10% | -9% | -25%
CCC(Oc1ccc2c(=O)c(-c3ccccc3OC)coc2c1)C(=O)OCc1ccccc1 (stereo not given) | -13% | -5.4% | 20µM* | ? | -5% | -13% | 7% | -1%
COC(=O)c1sccc1-n1cccc1C(=O)NCc1ccccc1 | 3% | 2.2% | -15% | 15% | 7% | -3% | -13% | 3%
CCN(CC)c1ccc(S(=O)(=O)N2CCOCC2)cc1NS(C)(=O)=O | 0% | · | 7% | ? | 12%[46.1 µM] | -2% | 6% | ·
O=C(NNC(=S)Nc1ccc(Br)cc1Cl)c1ccco1 | 21% | 0.3% | 56%[activator] | ? | 15% | 9% | 0% | 4%

Shown tab-delimited: three of the compounds above
compound	SARS PLpro yeast	Cruzain Triton	2A StopGo	MARV entry inh	LASV entry inh	NS1 function inh	RE007 growth inh	Cruzain inh noDet
CC(C)[C@H](NC(=O)N1CCn2c1nc1ccccc12)C(=O)N[C@@H](Cc1ccccc1)C(=O)O	?	·	-3%	·	·	-6%	7%	·
O=C(O)c1cccc(CN2C(=O)SC(Nc3cccc4ccccc34)C2=O)c1 (stereo not given)	0%	·	-5%	-8%	-1%	7%	1%	·
CCc1ccccc1N(C)S(=O)(=O)c1cc(-c2cc(C)no2)ccc1OC	-1%	·	-17%	·	·	8%	-8%	·

Two consecutive entries out of the list so far, for reference:
SMILES | SARS PLpro yeast | Cruzain Triton | 2A StopGo | MARV entry inh | LASV entry inh | NS1 function inh | RE007 growth inh | Cruzain inh noDet
COc1ccccc1N(CC(=O)Nc1cc(C)cc(C)c1)S(C)(=O)=O | · | -3.6% | -8% | 7%[46.1 µM] | 8%[46.1 µM] | · | · | -7%
COc1cccc(C(=O)NC(=S)NCc2ccco2)c1 | ? | -2.1% | 31%[activator] | ? | ? | 1% | -19% | 5%

The list goes on:
SMILES | SARS PLpro yeast | Cruzain Triton | 2A StopGo | MARV entry inh | LASV entry inh | NS1 function inh | RE007 growth inh | Cruzain inh noDet
O=C(Cc1ccc(Br)cc1)Nc1ccc(S(=O)(=O)NCC2CCCO2)cc1 (stereo not given) | 0% | · | -15% | -20%[46.1 µM] | -9% | -7% | -4% | ·
Cc1ccc(-c2csc3nnc(SCC(=O)NCc4ccco4)n23)cc1 | -3% | -1.7% | 9% | 4% | 5% | -9% | 9% | 4%
CNC(=O)C1CCC(Cn2c(=O)c3sccc3n(CC(=O)Nc3cc(C)cc(C)c3)c2=O)CC1 (stereo not given) | · | -0.4% | -8% | · | -14%[46.1 µM] | · | · | -8%
O=C(Nc1nc2ccccc2[nH]1)c1ccccc1F | -32% | -2.2% | 3.2µM* | 0.32µM* | 0.28µM* | -15% | 6.3µM* | 2%
Cc1cccc(NC(=O)CSc2nnc(-c3ccco3)n2CC2CCCO2)n1 (stereo not given) | 1% | · | -15% | 11%[46.1 µM] | 4%[46.1 µM] | -2% | 13% | ·
CCCC1=Nc2cc(C(=O)N3CCC(C(=O)OCC)CC3)ccc2Sc2ccccc21 | -4% | -6.9% | -15%&-15% | 6%&-8%[46.1 µM] | ? | -37% | -5% | ?
CCSc1nc(C(F)(F)F)cc(=O)n1-c1ccccc1 | -2% | -1.8% | -17% | -20% | 0% | -12% | 9% | -2%
Cc1nc2ccccc2n1CC(=O)NCCN1CCCC1 | -6% | 0.8% | -1% | 13% | -2% | -2% | 5% | -16%
Brc1cnc2nc[nH]c2c1 | -1% | · | 0% | · | · | -1% | -2% | ·
NC(=O)CC[C@H](N)C(=O)O | · | 5.0%&2.8% | -7% | -1%&-7%&-7%&-7%&-7% | 3% | -4% | · | 6%&3%
CC(=O)NC1C(=O)N(CCN2CCOCC2)c2ccc(Cl)cc21 (stereo not given) | -1% | · | 22% | -5%[46.1 µM] | 12%[46.1 µM] | 0% | 9% | ·
Cc1cc(C(=O)Nn2cnc3ccccc3c2=O)ccc1[N+](=O)[O-] | -3% | · | 15% | 30%[46.1 µM] | ? | · | -30% | ·
O=C(NC1CC1)C1=C[C@H](c2ccc(Br)cc2)C[C@H](OCc2ccc(CO)cc2)O1 | -1% | · | 0% | · | · | -33% | 3% | ·
Cc1nc2ncnn2c(C)c1CCC(=O)NCc1ccco1 | -5% | 0.2% | -3% | 3% | -1% | -1% | 14% | -3%
O=C(Nc1ccc2c(c1)OCO2)N1CCCc2ccccc21 | -1% | · | -11% | 1%[46.1 µM] | -15%[46.1 µM] | 7% | -2% | ·
CCOC(=O)C(C)n1cnc2c(nnn2-c2ccc(F)cc2)c1=O (stereo not given) | -3% | · | -1% | · | · | 2% | -4% | ·
Cc1ccc(-c2nc(CNC(=O)Nc3ccccc3)c(C)o2)cc1 | · | 0.6% | 1% | · | -20%[46.1 µM] | · | · | -2%
O=c1c2c3c(sc2nc2sc(CN4CCOCC4)cn12)CCCC3 | -3% | 3.7% | 0% | 9%&9% | 20% | 1% | 2% | -13%
COc1ccc(/C=C2/C(=O)N(c3ccccc3)N=C2C)cc1 | · | · | 2% | 6%[46.1 µM] | -19%[46.1 µM] | · | -27% | ·
COc1ccc(CC(=O)N/N=C/C=C/c2cccc([N+](=O)[O-])c2)cc1OC | 0% | · | -9% | ? | -18%[46.1 µM] | -5% | -18% | ·
CCOC(=O)NC(c1ccccc1)C1CCCCC1=O (stereo not given) | 2% | 1.9% | 14% | -33%[46.1 µM] | 1% | -7% | -1% | 1%
Cc1cccc(NC(=O)C2C3C=CC(O3)C2C(=O)O)c1C (stereo not given) | -26% | · | 22% | 7%[46.1 µM] | -24%[46.1 µM] | -18% | -21% | ·
COc1ccc(C=NN=C2c3ccccc3-c3ccccc32)cc1OC | · | · | -16% | -3% | 4%[46.1 µM] | · | -19% | ·
CCOc1ccc(C(=O)NC(=S)NCCCN2CCOCC2)cc1 | 1% | · | -12% | · | · | -3% | -11% | ·
CC1(C)CC(=O)C2=C(C1)OC(N)=C(C#N)C2c1cn(-c2ccccc2)nc1-c1ccccc1 (stereo not given) | 16% | -5.6% | 0% | 12% | -21% | 17% | 6% | -1%
CCc1nnc(NC(=O)CSc2nnc(Cc3cc(=O)[nH]c(=O)[nH]3)n2-c2cccc(OC)c2)s1 | 3% | · | -2% | -9%[46.1 µM] | 12% | · | -1% | ·
CCOC(=O)c1oc2c(CN3CCN(C)CC3)c(O)ccc2c(=O)c1-c1ccccc1OC | 3% | -4.7% | -23% | -2% | -13% | -7% | -6% | 3%
C/C(=N\NC(=O)c1cccc(Cl)c1)c1cccc(NC(=O)c2ccco2)c1 | -7% | -2.6% | -10% | 18% | -20% | -12% | -9% | 0%
COc1ccc2[nH]cc(C(O)CN3CCC(C(N)=O)CC3)c2c1 (stereo not given) | -1% | 4.8% | 7% | 11% | 2% | 2% | 5% | 3%
COc1ccc(N=Cc2ccccc2O)cc1 | · | · | -12% | ? | ? | · | -1% | ·
CCC(=O)Nc1ccc(CC)cc1-c1nc2ccccc2n(CC(=O)Nc2ccccc2C)c1=O | · | -4.2% | -15% | 4%[46.1 µM] | 4%[46.1 µM] | · | · | -1%
Cc1cc(C)c(OCC(=O)OCC(=O)NCCC2=CCCCC2)c(C)c1 | 4% | · | 10% | 6% | 1%[46.1 µM] | · | 14% | ·
NC(=O)NC(=O)COC(=O)c1ccc(OC(F)F)cc1 | -1% | · | -12% | 3% | 0% | 5% | -5% | ·

Assay outcomes: PubChem BioAssay, National Center for Advancing Translational Sciences (NCATS)
